# Assay outcomes from PubChem BioAssay.
# rRNA inh HTS – inhibits bacterial ribosomal RNA function over humanized ribosomes; E. coli WT GFP vs humanized-ribosome RFP mutants, fluorescence, 24 h; active compounds read low; DMSO median 0, no signal -100; GFP signal change (wild-type ribosome), % (no concentration beside the values); 350,000 tested, 1.6% active; AID 720706;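 active means significant combined selectivity score with lowered wild-type GFP, culture density cut under 30%, mutant RFP and density less affected; inactive means any of these conditions unmet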; further: one replicate is shown; some compounds called inactive have numbers as strong as hits
# AF4-AF9 inh – inhibitors of human MLL-AF4/AF9 interaction. P42568. AlphaScreen, biotin-AF4 peptide binding to FLAG-AF9. inhibition, % at 10 µM. 350,000 tested, 0.47% active. AID 651704;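 active means every replicate reaching a set inhibition limit, whatever the replicate mean, cut at about 25% in these data; inconclusive means mean inhibition reaches that limit but some replicates miss it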;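 further: 0% = plate neutral control median and 100% = total signal loss; the record names both 10 and 1 µM as test concentration; the first replicate is given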
# Target sequence (P42568 whole entry, looked up): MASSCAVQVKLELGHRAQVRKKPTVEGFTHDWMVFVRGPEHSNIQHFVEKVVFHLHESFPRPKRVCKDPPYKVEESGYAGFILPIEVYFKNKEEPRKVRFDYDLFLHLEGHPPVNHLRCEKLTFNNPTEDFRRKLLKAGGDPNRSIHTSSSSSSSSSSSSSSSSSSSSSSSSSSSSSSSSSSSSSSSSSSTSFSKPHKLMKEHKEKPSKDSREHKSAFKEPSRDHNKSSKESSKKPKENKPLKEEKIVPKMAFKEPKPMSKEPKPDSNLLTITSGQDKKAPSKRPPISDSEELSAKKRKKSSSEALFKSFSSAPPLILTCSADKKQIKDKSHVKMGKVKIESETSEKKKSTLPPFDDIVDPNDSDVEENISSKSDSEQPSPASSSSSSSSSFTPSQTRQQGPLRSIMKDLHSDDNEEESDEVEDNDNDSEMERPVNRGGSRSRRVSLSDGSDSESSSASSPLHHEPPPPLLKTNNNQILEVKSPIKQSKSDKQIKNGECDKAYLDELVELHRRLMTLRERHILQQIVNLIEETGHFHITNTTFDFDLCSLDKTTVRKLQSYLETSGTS
# Bfl-1 A1 inh – inhibitors of the anti-apoptotic protein A1, read as caspase activation. MEF A1-2A-BIM cells, Caspase-Glo 3/7 luminescence, 3 h; percent of clofoctol response, vehicle zero. caspase activation, % (test concentration not listed). 330,000 tested, 0.066% active. AID 2462;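 active means over half of replicate activation scores above 10%, or exactly half above 10 with the replicate mean above 10; inconclusive means replicate mean below 10 yet half the replicates above 10; inactive means over half of replicates below 10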;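 further: wells of about 30 µL received 50 nL stock; many hits fall short of the cut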
# Beta apoptosis – blocks beta cell apoptosis; INS-1E cytokine-induced death, ATP luminescence, 48 h; percent of positive-control rescue, neutral wells zero; protection from apoptosis, % (no concentration beside the values); 300,000 tested, 0.8% active;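 active means all replicates at 75% or more, or half of them and the mean; inconclusive means half reach 75% but not the mean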;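 further: 0% = cytokine-treated negative control wells and 100% = positive control rescue; higher means more ATP so stronger rescue from cytokine killing; wells of about 40 µL received 100 nL stock; the first replicate is given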
# RanGTP-Imp inh – inhibitors of RanGTP-importin-beta interaction, primary screen, biochemical, FRET, CFP-Ran, YFP-importin-beta, homogeneous; cell-free CFP-Ran/YFP-importin-beta FRET ratio; 300,000 tested, 1.1% active; inhibition, % (test concentration not listed);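 active means most replicates above 15%; inconclusive means exactly half above 15%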;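 further: 0% = DMSO wells and 100% = Ran loaded with GDP instead of GTP; wells of about 40 µL received 100 nL stock; the first replicate is given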
# Vif A3G – inhibitors of Vif binding to APOBEC3G peptide, primary screen, biochemical, TR-FRET, GST-Vif 1-94, biotin-A3G peptide, dose response retest (AID 1117319) | inhibition, %; hits with a dose series show IC50 in µM | TR-FRET GST-Vif / biotin-A3G peptide binding; higher % means a stronger effect; test concentration not given here; strong numbers were not always called active | 260,000 tested, 0.57% active;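 active means above the screen mean plus three standard deviations and confirmed in dose response; inconclusive means results disagree or hit not tested in dose response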;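 further: Vif residues 1-94 fused to GST binding biotinylated APOBEC3G peptide 110-148; 0% = full assay without inhibitor and 100% = GST in place of GST-Vif; retest series ran down from 100 µM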
# T cruzi repl – T. cruzi replication inhibition; T. cruzi beta-gal in NIH3T3, luminescence, 90 h; inhibition, % (test concentration not listed); 300,000 tested, 1.4% active;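 active means mean inhibition across valid replicates above about 55%, limit read from the data; inconclusive means mean below that limit but half or more replicates reach it; inactive means mean below it, under half of replicates reach it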;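 further: signal also drops with host cell toxicity which is not excluded here; 0% = plate median of DMSO wells and 100% = zero luminescence signal; higher percent means less beta-gal luminescence so fewer parasites; stock transfer was 50 nL into about 50 µL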
# Calb FLC – C. albicans growth modulation with fluconazole; C. albicans CaCi-2 (fluconazole-resistant clinical isolate) + fluconazole, Alamar Blue growth, 48 h; growth inhibition, % (test concentration not listed); 300,000 tested, 0.57% active;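 active means most replicates above 75%; inconclusive means exactly half above 75%; inactive means most below 75%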;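 further: all wells also contain fluconazole at 8 µg/ml as a sub-toxic cotreatment; 0% = median of DMSO wells and 100% = median of geldanamycin control wells; wells of about 8 µL received 7.5 nL stock; the first replicate is given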
# rRNA inh HTS OD600 – second read-out of rRNA inh HTS, no call of its own (marks repeat the call); OD600 change, %; measured here: OD600 growth;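 optical density of the mix in the first replicate; 0 = DMSO median and -100 = no signal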
# rRNA inh HTS RFP – also measured in rRNA inh HTS; calls as there; RFP signal change, %; measured here: RFP humanized mutant strains;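 first replicate; 0 = DMSO median and -100 = no signal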
# Starred values were filed as active, the others as inactive; u = inconclusive; x = no result given; & = joins results of further samples.
# Sequence of screens – rRNA inh HTS, rRNA inh HTS OD600, rRNA inh HTS RFP, AF4-AF9 inh, Bfl-1 A1 inh, Beta apoptosis, RanGTP-Imp inh, Vif A3G, T cruzi repl, Calb FLC
COc1ccc(-c2nc3cnccn3c2NC2CCCCC2)cc1-c1cccc(Cl)c1
→ -1, -11, -2.2, -5.6, 0.8, -9, x, x, x, x
Cc1cccc(C)c1NC(=O)CSc1nc2c([nH]1)c(=O)n(C)c(=O)n2C
→ 3, 2, -4.1, -1.3, 0.0, 1, -1.7, 6%, -1, -1
CC(c1nc2ccccc2c(=O)[nH]1)N1CCN(C)CC1 (stereo unspecified)
→ x, x, x, x, 0.3, 1, -4.4, 26%, 33, 0
O=C(N/N=C\c1cn[nH]c1-c1ccccc1)c1cccs1
→ 8, 1, 0.8, 6.3, 0.0, -1, 1.9, -12%, -18, 5
N#Cc1ccc(COC(=O)Cn2nnc(-c3ccccc3)n2)cc1
→ x, x, x, x, 1.2, -5, -2.2, 8%, -4, 3
O=C(NCCCl)Nc1ccccc1OCCOc1ccccc1NC(=O)NCCCl
→ 0, 8, -2.7, 0.9, 0.2, 1, 2.6, x, 20, -3
Cc1ccc(S(=O)(=O)NCCn2nc(C)nc2C)cc1
→ 4, 2, -2.9, -5.2, 1.0, -7, -2.1, x, -4, 2
CN(C)C1=NCCN1CCc1ccccc1
→ 0, 9, -1.8, -1.5, -0.1, -3, x, x, x, x
O=C(O)CCC(=O)Nc1ccc(N2CCCCC2)c(C(=O)O)c1
→ x, x, x, x, 0.4, -3, 1.8, 7%, -12, -1
COC(=O)c1cccc(NC(=O)/C=C/c2ccc([N+](=O)[O-])cc2)c1
→ -7, -1, -3.0, -2.1, 0.6, -3, u, 0%, 4, 1
Cc1csc(NC(=O)CN2C(=O)c3ccccc3S2(=O)=O)n1
→ 8, 4, -0.1, -0.9, 0.2, -1, 1.9, x, -9, 7
COc1ccccc1OCC(O)Cn1c(=N)n(CCN2CCCCC2)c2ccccc21 (stereo unspecified)
→ 12, -6, 6.4, x, 0.2, -7, -1.0, -2%&-15%, 15, -6
O=C(NC1CCCC(C(F)(F)F)C1)c1ccc([N+](=O)[O-])o1 (stereo unspecified)
→ -24*, -10*, -3.5*, -2.3, -1.6, -49, x, x, x, x
COc1ccc(-c2noc(CN(C)S(=O)(=O)c3ccc(C)cc3)n2)cc1
→ x, x, x, x, 0.0, 8, 1.1, 1%, -12, 2
CC(C)Cc1nnc(NC(=O)CCC(=O)Nc2ccc(F)cc2)s1
→ x, x, x, x, 0.0, 4, 5.3, 14%, -28, -1
O=C(NCCOc1ccc(Cl)cc1)c1ccc2c(c1)OCCO2
→ 9, -25, -3.1, 3.1, -0.9, 5, x, 2%, x, x
COc1ccc(Cl)cc1C(=O)n1nc(C)cc1C
→ x, x, x, x, 0.8, -1, 2.1, 24%, -12, -9
CC(C)NC(=O)[C@@H]1CSC2c3ccccc3C(=O)N21 (stereo partly specified)
→ 7, 13, 0.5, -4.8, -0.4, -5, -1.2, -3%, -1, 3
O=S(=O)(NC(=NC1CCCCC1)c1ccccc1F)c1ccccc1
→ -1, -1, 2.1, -0.9, -0.8, x, 0.2, x, -4, -11
CN1CCN(C(=O)c2cnn3c(C(F)F)cc(C4CC4)nc23)CC1
→ x, x, x, x, 0.4, 1, 3.5, 0%, 8, 0
CN(CCOC(=O)c1ccco1)Cc1ccccc1
→ x, x, x, x, -1.0, -4, -1.3, 1%, -5, 38
O=C(CS(=O)(=O)c1ccccc1)NCc1ccc(Cl)cc1
→ 5, 9, -0.4, -2.5, 0.0, -1, u, x, -8, 1
C=CCn1c(SCC(=O)NCc2ccccc2)nnc1C1CCCCC1
→ -2, -2, 4.7, x, 1.4, -1, -1.1, 0%, 4, -16
COc1ccc(-n2ncc(C(=O)N3CCN(c4ccc(F)cc4)CC3)c2C)cc1
→ 8, 5, 0.1, -17, 0.8, 0, -1.6, -2%, 0, 28
COCCNC(=O)c1ccccc1NC(=O)Cc1ccccc1
→ 10, 4, 2.4, -7.7, -0.1, x, -0.2, 5%, 3, 1
Cc1ccc(C)c(OCCOCCN2CCOCC2)c1
→ x, x, x, x, 0.3, -5, -2.3, -5%, 7, -11
CCN1/C(=C/C(C)=O)Sc2ccc(OC)cc21
→ x, x, x, x, 0.5, -1, 0.1, 1%, 8, 24
CC(Nc1c([N+](=O)[O-])c(=O)oc2ccccc12)c1ccccc1 (stereo unspecified)
→ -7, -9, -6.6, 6.1, -0.1, 4, -2.1, 5%, -11, -28
C[C@@H](C(=O)N1CCN(C(=O)OC(C)(C)C)CC1)n1cc(CCC(=O)O)nn1
→ 8, 3, 0.8, x, -0.2, -4, 8.3, x, -8, -3
CC(C)(O)C#Cc1ccc(C(=O)N2CCC(CCC(=O)NC3CC3)CC2)cc1
→ -2, 4, -1.4, -0.3, 0.2, -3, -0.8, x, -18, 13
COc1ccc(S(=O)(=O)N(C)CC(=O)N2CCCC2)cc1
→ 3, 12, 0.4, 2.7, 0.0, 6, 7.2, x, -2, 9
CC(C)CCN1CCC(Cc2ccccc2)(NC(=O)c2ccccc2)C1=O (stereo unspecified)
→ -21, -39, -1.4, -1.8, 0.3, 6, x, x, x, x
CN1CCN(c2nnc(-c3ccccc3)c(-c3ccccc3)n2)CC1
→ 2, -12, 0.3, x, 0.5, -7, 0.8, -4%, 45, 11
Cc1ccc(C2=NN(C)c3nc4ccccc4n3C2)cc1
→ x, x, x, x, 1.2, 14, 6.6, 3%, -11, 1
Cc1ccc2sc(-c3ccc(NC(=O)CCN4C(=O)c5ccccc5C4=O)cc3)nc2c1
→ 14, 15, -0.3, 4.5, 0.6, -6, 2.4, -9%, -2, 9
COc1ccc(C(=O)/C=C/Nc2cccc(C)n2)cc1OC
→ x, x, x, x, -4.2, 2, 20*, -8%, -5, u
CC1(C)c2ccccc2N(CC(N)=O)C12C=Cc1ccccc1O2 (stereo unspecified)
→ -16, 4, 57, 6.7, 0.1, -4, 7.6, 15%, 3, 5
CCCCNc1cc(=O)n(C)c(=O)n1C
→ x, x, x, x, -0.6, 5, 5.8, 30%, -6, 7
NC1=Nc2cccc3cccc1c23
→ -2, 2, 64, 3.8, -0.4, 16, 4.8, x, -11, 20
N#Cc1ccc(/C=C2\CCn3c2nc2cc(C(=O)O)ccc2c3=O)cc1
→ 3, 1, -1.5, -1.1, 0.0, -2, 4.1, x, 1, -3
COc1ccc(CNC(=O)c2cnc3n(c2=O)CCS3)cc1
→ 4, 1, -0.7, 2.1, 0.4, 0, 2.4, -1%, -1, -3
Cc1cc(-c2ccccc2)[nH]c(=O)c1S(=O)(=O)c1ccc(Cl)cc1
→ x, x, x, x, -0.4, -4, 0.7, -15%, 4, -13
CC1CCCCN1S(=O)(=O)c1ccc(C(=O)Nc2nnc(C3=COCCO3)o2)cc1 (stereo unspecified)
→ -36, -60, 0.7, 2.5, 0.7, x, -1.2, x, -7, -15
Cc1ccc(C(=O)c2ccc(C(F)(F)F)cc2)cc1
→ x, x, x, x, 0.5, -3, -0.2, 7%, -1, -1
N#CCC(=O)N/N=C\c1ccc(OC/C=C/c2ccccc2)cc1
→ -13, -19, -0.4, -9.3, 0.2, 1, 5.8, x, -8, -3
CCOC(=O)CNC(=O)CCNS(=O)(=O)c1ccc2c(c1)c(=O)n(C)c(=O)n2C
→ x, x, x, x, 0.1, -2, u, 4%, -18, 20
Cc1ccc(C(=O)c2ccc(N3CCOCC3)c(F)c2)cc1
→ x, x, x, x, -0.4, -7, 0.2, 5%, 10, -11
CCCCC(CC)C(=O)Nc1ccccc1C#N (stereo unspecified)
→ x, x, x, x, 1.2, -3, 1.5, -3%, -1, -18
Cc1cc(NC(=O)/C=C/C(=O)N(CC(=O)NC2CCCC2)c2cccc3ccccc23)no1
→ 7, 0, -0.4, 1.7, 1.1, -8, -0.3, -5%, -27, -13
Cc1ccc(CSc2nnc(CNc3ccc(F)cc3)o2)cc1
→ -47, -74, -12, -6.3, -1.0, x, -9.3, -7%, 13, 15
O=S(=O)(c1ccc(Cl)cc1)N1CCN(C(=S)Nc2ccc(F)c(Cl)c2)CC1
→ x, x, x, x, 2.0, 3, -0.8, 1%, -9, -11
Cc1ccc(CN(C(=O)N2CCN(C)CC2)S(=O)(=O)c2ccc(C)cc2)cc1
→ 16, 12, 2.1, -1.7, -0.1, x, 12, 0%, -2, 0
CC(=O)c1cccc(NC(=O)N2CCc3ccccc3C2)c1
→ x, x, x, x, -0.5, 3, -0.9, -6%, 0, -21
Cc1ccccc1NC(=O)c1cc(S(=O)(=O)N2CCOCC2)cs1
→ x, x, x, x, -0.8, -8, 5.1, -5%, -2, u
Cc1cc(/C=N/NC(=O)c2ccc(CN3CCOCC3)cc2)c(C)n1-c1ccccc1
→ x, x, x, x, 0.2, -1, -0.1, 17%, -1, -11
COc1ccc(OC)c(NC(=O)Nc2ccc(Cl)cc2)c1
→ x, x, x, x, -0.4, 6, -2.3, 3%, 28, 20
COc1ccc(CC(NC(C)=O)C(=O)NC2CCN(C(=O)Nc3ccc(C#N)cc3)CC2)cc1OC (stereo unspecified)
→ 8, 0, -2.4, 5.7, 0.3, -4, -0.5, 11%&5%, -13, 3
O=S(=O)(c1ccc(Cl)s1)N1CCCCC1
→ 5, 6, 1.2, -2.5, -0.3, 8, 1.8, -1%, 20, 10
CC(=O)Nc1ccccc1O
→ x, x, x, -6.9&0.0, 0.8, -6, 3.2, u, 1, x
C=C(C)COc1ccc(-c2ncncc2-c2ccc(Br)cc2)c(O)c1
→ 0, -14, -1.5, -2.8, -1.2, 7, -0.6, 5%, 44, 5
O=C(Nc1cccc(-c2csc(Nc3ccc(Cl)cc3)n2)c1)c1cc([N+](=O)[O-])cc(C(F)(F)F)c1
→ 6, 19, -16, 2.1, 0.9, 32, -0.5, x, 21, -7
O=C(/C=C/c1ccco1)Nc1ccccc1C(=O)Nc1cccc(C(=O)O)c1
→ 9, -3, 0.4, -7.3, -2.3, 0, 8.8, 31%, -7, -5

# A stretch from further up, for reference:
# Sequence of screens – rRNA inh HTS, rRNA inh HTS OD600, rRNA inh HTS RFP, AF4-AF9 inh, Bfl-1 A1 inh, Beta apoptosis, RanGTP-Imp inh, Vif A3G, T cruzi repl, Calb FLC
CCOC(=O)CNC(=O)CCNS(=O)(=O)c1ccc2c(c1)c(=O)n(C)c(=O)n2C
→ x, x, x, x, 0.1, -2, u, 4%, -18, 20
Cc1ccc(C(=O)c2ccc(N3CCOCC3)c(F)c2)cc1
→ x, x, x, x, -0.4, -7, 0.2, 5%, 10, -11
CCCCC(CC)C(=O)Nc1ccccc1C#N (stereo unspecified)
→ x, x, x, x, 1.2, -3, 1.5, -3%, -1, -18

# Only part of the results is shown; the hit share may differ from the screen's.
